Bioassay records as filed in PubChem BioAssay.
Calb biofilm kill – clotrimazole potentiators killing C. albicans biofilm, primary screen, 4-compound mixtures | inhibition, % at 7.6 µM | AID 1242, 2008 | actives 0.02% (n = 120,000) | C. albicans biofilm persisters + clotrimazole, fluorescence viability; primary screen in compound mixtures of four per well;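 active means inhibition above 30.3% in the primary screen of four-compound pools, then above 30% when the compound was retested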;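 further: compounds exposed to preformed 24 h biofilms for 48 h; the number belongs to the whole pool; some results filed as inactive read as strong as hits; inactives centre near 12; 0% = biofilm with clotrimazole alone and 100% = kill control; retested singly at about 60 µM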
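Test system: C. albicans biofilms. Buffer or medium: RPMI/MOPS medium, pH 7.0. Timing: 48 h compound exposure at 37 °C. Technique: Alamar Blue fluorescence. Evaluation: percent inhibition of biofilm viability.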
Active calls of the source: *.

SMILES	Calb biofilm kill
COc1ccc(C(=O)C2CCCN(Cc3cccc4c3OCO4)C2)cc1OC (configuration not stated)	18
CC(C)CNc1nc(SCC(=O)Nc2ccccc2)nc(N2CCOCC2)n1	14
Nc1nnc(Cc2ccccc2F)s1	14
Cc1ccccc1COC(=O)c1nn(-c2ccccc2)nc1N	15
CC1=NN(/C(=N\c2nnc(C)s2)Nc2ccc(C(C)(C)C)cc2)[C@H](c2ccc(C)cc2)S1	13
COc1ccccc1NS(=O)(=O)c1cc(NC(=O)c2sc3cc(Cl)ccc3c2Cl)ccc1C	9
CCN1CCCc2cc(CN(CCN3CCOCC3)C(=S)Nc3ccc(OC)c(Cl)c3)ccc21	15
Cn1cccc1-c1cc(C(=O)N2CCc3c([nH]c4ccccc34)C2c2ccccn2)[nH]n1 (configuration not stated)	24
CCOC(=O)C1C(=O)CC(C)(O)C(C(=O)OCC)C1c1ccccc1 (configuration not stated)	21
Cc1nc(CCNS(=O)(=O)c2cccnc2)cs1	18
COc1cc(C(CCN2CCOCC2)c2c(OC)cc(OC)c3c2OC(=O)CC3c2ccc(N(C)C)cc2)cc(OC)c1OC (configuration not stated)	16
CSc1nc2ccccc2n1CC(=O)Nc1c(C)cccc1C	-3
c1ccc(OCc2nnc3n2N=C(c2ccccc2)CS3)cc1	8
O=C(COC(=O)[C@H](Cc1ccccc1)NC(=O)c1cccs1)NC1CC1	1
Cc1ccc(Cn2nnc3c(=O)n(CC(=O)NCc4ccco4)cnc32)cc1	14
O=C(O)/C=C\C(=O)Nc1ccc(N2CCN(c3ccc(F)cc3)CC2)cc1	23
O=C(CSc1ccc2nnc(-c3ccc(Cl)cc3)n2n1)N1CCCc2ccccc21	10
COc1cc(/C=C/C(=O)OCC(=O)Nc2ccc(NC(C)=O)cc2)cc(S(=O)(=O)N2CCc3ccccc32)c1OC	3
O=C(CSc1nc(O)cc(=O)n1-c1ccccc1)Nc1ccccn1	2
O=C(COC(=O)c1cc[n+]([O-])cc1)NCc1ccccc1Cl	18
CC(=O)c1ccc(NC(=O)c2cn(-c3ccccc3)nc2-c2ccncc2)cc1	3
CCOC(=O)c1cc(C)[nH]c1C	18
COc1ccc(Br)cc1/C=N/NC(=O)CN1CCN(Cc2ccccc2)CC1	17
CC(Sc1nnc(COc2ccccc2)n1Cc1ccccc1)C(=O)O (configuration not stated)	15
CC(C)CNC(=O)C1c2ccccc2Oc2ccccc21	42
(list continues)
SMILES	Calb biofilm kill
CC(=O)Cc1cc(O)c2ccccc2c1OC(=O)c1ccccc1	1
Cc1cc(C)cc(NC(=O)Nc2ccc(Cl)cn2)c1	12
CN(CCOc1ccccc1)CC(=O)Nc1cc([N+](=O)[O-])ccc1Cl	15
CN(C)c1nc(/C=C(\C#N)C(N)=O)c(Cl)n1-c1ccc(F)cc1	13
CN(C)c1ccc(/C=N/N=C(N)N)cc1[N+](=O)[O-]	25
Cc1cc([N+](=O)[O-])cc(C)c1OCC(=O)N/N=C/c1ccc(OC(=O)c2ccccc2Br)cc1	4
COc1ccc(N2C(=O)C(CC(=O)Nc3ccccc3)N(Cc3cccs3)C2=O)cc1 (configuration not stated)	14
Cc1cccc2nc(CSc3nc4cc([N+](=O)[O-])ccc4s3)cn12	16
CCS(=O)(=O)Nc1ccc(-c2nc3cccnc3s2)cc1	6
COc1ccc(N(CC(=O)N/N=C/c2cc(Br)c(C)o2)S(=O)(=O)c2ccc(NC(C)=O)cc2)cc1	11
CCOC(=O)C1CCCN(S(=O)(=O)c2ccc(S(=O)(=O)N(CC)CC)cc2)C1 (configuration not stated)	26
N#C/C(=C\c1ccccc1OCc1ccc(C(=O)O)cc1)C(=O)Nc1ccc(O)cc1	-4
Cn1ncc(Br)c1C(=O)N/N=C/c1ccc(OS(=O)(=O)c2ccccc2)cc1	6
Cc1ccc(C(C(=O)NC2CCCCC2)N(C(=O)CCCC(=O)Nc2ccccn2)c2ccc3c(c2)OCCO3)cc1 (configuration not stated)	12
CC(Sc1cccc[n+]1[O-])C(=O)Nc1cccc(S(=O)(=O)N2CCOCC2)c1 (configuration not stated)	22
O=C(CNc1ccccc1-c1ccccc1)NCc1ccccc1	10
COC(=O)N/N=C/c1cn(CCCOc2ccccc2)c2ccccc12	20
CCCCN(C(=O)c1ccc(Cl)c(S(=O)(=O)N2CCOCC2)c1)c1c(N)n(CCC)c(=O)[nH]c1=O	19
Cc1ccc(-n2ncc(C(=O)Nc3ccc(Cl)cc3)c2C2CCNCC2)cc1C	14
CCOC(=O)c1ccc2[nH]c(C)c(C)c2c1	17
O=C(CCSc1ccccc1)OCn1nnc2ccccc2c1=O	0
Cc1ccc(NCc2nnc(SCC(=O)N3c4ccccc4Sc4ccccc43)o2)c(C)c1	16
CCCc1cc(=O)[nH]c(SCC(=O)c2c[nH]c3ccccc23)n1	12
COC(=O)C1=C(C)N(C(C)c2ccccc2)C(=O)C1 (configuration not stated)	9
CCOc1ccc(C(=O)NCC2(c3ccccc3)CCOCC2)cc1	6

Among those listed so far, two have a cyano group:
SMILES	Calb biofilm kill
CN(C)c1nc(/C=C(\C#N)C(N)=O)c(Cl)n1-c1ccc(F)cc1	13
N#C/C(=C\c1ccccc1OCc1ccc(C(=O)O)cc1)C(=O)Nc1ccc(O)cc1	-4

Continuation:
SMILES	Calb biofilm kill
NS(=O)(=O)c1ccc(NC(=O)CN2CCc3ccccc32)cc1	7
O=C(CN1C(=O)c2ccccc2S1(=O)=O)NCc1ccc2c(c1)OCO2	10
c1ccc(-c2nc(NCc3ccco3)c3ccccc3n2)cc1	4
CC[N+](C)(C)CC/C=C1/c2ccccc2Sc2ccc(Cl)cc21	7
CC(C)S(=O)(=O)c1csc(C(=O)NN)c1-n1cccc1	16
CC1=Nc2ccccc2/C1=C\c1sc(Nc2ccc(C)cc2)nc1O	9
CC1CCCN(c2ccc(C(=O)NCc3ccccc3)cn2)C1 (configuration not stated)	6
O=C(CSC1CN(C(c2ccccc2)c2ccccc2)C1)N/N=C/c1ccccc1	18
Cc1cc(C)cc(NC(=O)N2CCN(Cc3ccc4c(c3)OCO4)CC2)c1	16
COCCn1cnc2c1c(=O)n(CC(=O)OCC(=O)NCC(F)(F)F)c(=O)n2Cc1ccccc1	21
COC(=O)c1c(SCc2cccc3ccccc23)nc(=O)[nH]c1C	9
CS(=O)(=O)c1nc(-c2ccc(F)cc2)cc(C(F)(F)F)n1	10
O=C(NCc1ccccc1Cl)C(=O)NCC1OCCN1S(=O)(=O)c1cccs1 (configuration not stated)	13
COc1ccc(Br)cc1CN(C)CC(=O)Nc1cc(Cl)ccc1Cl	17
O=S1(=O)N=C(N(CCO)/N=C/c2ccccc2)c2ccccc21	15
COc1ccc(CNC(=O)c2cccc(C)c2[N+](=O)[O-])cc1	12
O=C(Cn1c(=O)c(=O)n(Cc2ccccc2)c2ccc(Cl)cc21)Nc1ccc(F)cc1F	5
Cc1cccnc1CCNC(=O)CCc1nnc(-c2ccccc2)o1	10
O=C(COc1ccc2ccccc2c1)NCCc1ccc2c(c1)OCCO2	-15
Cc1ccccc1OCC(=O)OCC(=O)NCC1CCCO1 (configuration not stated)	13
CC(/C=C1\SC(=S)N(NC(=O)c2ccccc2C)C1=O)=C\c1ccccc1	5
COc1cccc(CN2CCN(C3CCOCC3)CC2CCO)c1 (configuration not stated)	11
O=C(COC(=O)c1ccco1)Nc1ccccc1[N+](=O)[O-]	7
CC(NCCC(Cc1ccccc1)c1ccco1)c1ccccc1 (configuration not stated)	27
O=C(Nc1nnc(-c2ccccc2F)s1)C1CCCO1 (configuration not stated)	4
Continued:
SMILES	Calb biofilm kill
Cc1nn(-c2ccccc2)c(C)c1/C=N/NC(=O)c1cccs1	14
Cc1cc(C)n(CC(=O)N2c3ccccc3Sc3ccc(C(F)(F)F)cc32)n1	8
Cc1ccc(CN2CCN(/N=C/c3ccc(Cl)c([N+](=O)[O-])c3)CC2)cc1	8
NC(=O)CC(NC(=O)Cc1ccc(Br)cc1)c1ccc(NCc2cc(F)ccc2F)c([N+](=O)[O-])c1 (configuration not stated)	7
COC(=O)c1oc(-c2ccc(Cl)cc2)nc1C	14
CC1CCCCC1N=C1NC(C)(C)CS1 (configuration not stated)	14
O=C(CNc1ccc(Cl)cc1)NNC(=S)NCc1ccccc1	34
CSc1ncccc1C(=O)N1CCCC(CCC(=O)NCc2ccc(F)c(F)c2)C1 (configuration not stated)	7
COc1ccc(/C(C)=N/NS(=O)(=O)c2ccccc2)c(OC)c1	-3
O=C(NNC(=O)c1ccc2c(c1)OCO2)NC12CC3CC(CC(C3)C1)C2	9
CCOC(=O)c1c(-c2ccc(OCC)cc2)csc1NC(=O)CCN1C(=O)c2ccccc2C1=O	8
CC(C)OC(=O)c1ccc(COC(=O)c2cccc(-c3nnc(-c4ccccc4)o3)c2)cc1	1
COc1cc(NC(=S)Nc2cccc(C)n2)cc(OC)c1OC	-16
NC(=O)c1cccnc1Nc1ccccc1F	1
CCN(CC(=O)Nc1cccc(S(N)(=O)=O)c1)Cc1nc2ccccc2c(=O)[nH]1	11
CCCc1nn(C)c2c(=O)[nH]c(-c3ccccc3OCC)nc12	7
Oc1c(Br)cc(Br)cc1CNc1ccc(F)cc1	3
O=C(N/C(=C/c1cccs1)C(=O)N1CCOCC1)c1cccs1	5
CN(C(=O)COc1ccc(Cl)cc1)c1nnc(C23CC4CC(CC(C4)C2)C3)s1	17
Cc1ccc(C)c(S(=O)(=O)N=Nc2c(O)[nH]c3ccccc23)c1	3
COc1ccc(N2CCN(C(=O)Cc3coc4cc(C)ccc34)CC2)cc1	3
COCCn1c(SCC(=O)c2ccccc2)nc2c(c1=O)SCC2	17
COc1ccc(/C=C/C(=O)OCC(=O)Nc2ccc(N3CCOCC3)cc2)cc1OC	21
O=C(/C=C/c1ccco1)NCCCN1CCOCC1	6
CS(=O)(=O)N1CCN(c2ccc(NC(=S)NC(=O)c3ccccc3[N+](=O)[O-])cc2)CC1	3
Next part
SMILES	Calb biofilm kill
COC(=O)c1ccc(/C=N/Nc2nc(-c3ccccc3)cs2)cc1	7
CC(c1ccccc1)N1CCc2[nH]c(=S)[nH]c(=O)c2C1 (configuration not stated)	14
CCOC(=O)C1=C(C)NC(=O)CC1c1cc2c(cc1[N+](=O)[O-])OCO2 (configuration not stated)	6
COc1ccc(C)cc1NC(=O)c1ccc(CN2CCN(c3ccccc3)CC2)cc1	19
COC(=O)c1ccc(COc2ccc(/C=N/N3CCN(C)CC3)cc2)cc1	11
Cc1ccc(F)c(NC(=O)c2ccc(Cn3cc(Cl)cn3)cc2)c1	17
CC12CCC(C/C1=N/OC(=O)c1cccc([N+](=O)[O-])c1)C2(C)C (configuration not stated)	10
CCCCc1ccc(NC(=O)N[C@@H](CC(C)C)C(=O)O)cc1	16
CCN(CC)c1ccc(/C=C2\SC(=O)N(C(C)C)C2=O)o1	18
CCN(CC)S(=O)(=O)c1cccc(NC(=O)c2cc(=O)[nH]c3ccccc23)c1	26
Cc1ccc(S(=O)(=O)n2nnc3ccccc32)c(C)c1C	6
Cc1cc(Nc2ccccc2)n(C(=O)c2ccc(Cl)cc2)n1	6
N/C(=N\OC(=O)c1ccccc1)c1cccnc1	23
COc1ccc(C2c3ccc4ccccc4c3Oc3ncn(CCCO)c(=N)c32)cc1OC (configuration not stated)	16
O=S(=O)(Nn1cnnc1)c1ccc2ccccc2c1	3
Cc1ccc(-c2nc(Cl)nc3ccccc23)cc1	15
CC1CCCC(=C\c2ccccc2)/C1=N/O (configuration not stated)	4
CCC(C)c1ccccc1NC(=O)COC(=O)c1ccc2[nH]c3c(c2c1)CCCC3 (configuration not stated)	4
CC(=O)NS(=O)(=O)c1ccc(N=NN2CCOCC2)cc1	4
CC1CN(C(=O)c2ccccc2Oc2ccccc2)CC(C)O1 (configuration not stated)	17
Brc1c(NC2=NCCN2)ccc2nccnc12	13
CCCS(=O)(=O)NCCc1cc2ccc(C)cc2[nH]c1=O	6
CN(C)CCC=C1c2ccccc2CCc2ccccc21	14
c1cc2c3c(cccc3c1)NC1(CCC3(CC1)Nc1cccc4cccc(c14)N3)N2	8
O=C1c2ccccc2C(=O)C12OC2c1cccc2ccccc12 (configuration not stated)	16

Gathered by group: those above with a nitro group on carbon
SMILES	Calb biofilm kill
CN(CCOc1ccccc1)CC(=O)Nc1cc([N+](=O)[O-])ccc1Cl	15
CN(C)c1ccc(/C=N/N=C(N)N)cc1[N+](=O)[O-]	25
Cc1cc([N+](=O)[O-])cc(C)c1OCC(=O)N/N=C/c1ccc(OC(=O)c2ccccc2Br)cc1	4
Cc1cccc2nc(CSc3nc4cc([N+](=O)[O-])ccc4s3)cn12	16
COc1ccc(CNC(=O)c2cccc(C)c2[N+](=O)[O-])cc1	12
O=C(COC(=O)c1ccco1)Nc1ccccc1[N+](=O)[O-]	7
Cc1ccc(CN2CCN(/N=C/c3ccc(Cl)c([N+](=O)[O-])c3)CC2)cc1	8
NC(=O)CC(NC(=O)Cc1ccc(Br)cc1)c1ccc(NCc2cc(F)ccc2F)c([N+](=O)[O-])c1 (configuration not stated)	7
CS(=O)(=O)N1CCN(c2ccc(NC(=S)NC(=O)c3ccccc3[N+](=O)[O-])cc2)CC1	3
CCOC(=O)C1=C(C)NC(=O)CC1c1cc2c(cc1[N+](=O)[O-])OCO2 (configuration not stated)	6
CC12CCC(C/C1=N/OC(=O)c1cccc([N+](=O)[O-])c1)C2(C)C (configuration not stated)	10

Remaining list, next part:
SMILES	Calb biofilm kill
O=C1c2cccc3cccc(c23)C(=O)N1Cc1cccnc1	8
O=C(NCc1ccccc1Cl)c1cccc(C(F)(F)F)c1	7
CSCC[C@H](NC(=O)C1CCCC1)c1nc2ccccc2[nH]1	-1
Cc1ccc(C(C)(C)C)cc1S(=O)(=O)NC(=O)c1ccccc1	17
CC1=CC2=NC(=O)/C(=C\c3ccc(OC(=O)c4ccco4)cc3)C(=N)N2O1	10
CCOc1cc(-n2nc(C)c(C#N)c2N)nc(SC)n1	16

These rows are one share of the data; rates above refer to the full screens.
